HPGD inh: HPGD (human) dehydrogenase inhibition; P15428; Potency, µM, for the others: at the top dose activity change, negative = inhibition, hits mostly inhibitors; purified HPGD, NADH fluorescence kinetic, PGE2 substrate; AID 894; actives 4.3% (n = 150,000); active = well fitted inhibition curve with a large enough effect (not every such curve was filed as active); inconclusive = small, poorly fitted or top-dose-only effect, or another doubt; inactive = no such curve, though single readings can be large or run the other way;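 also: top concentration of the series not given in the record; plate controls included wells without enzyme; inactives centre near -10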
Target sequence (P15428 whole entry, looked up): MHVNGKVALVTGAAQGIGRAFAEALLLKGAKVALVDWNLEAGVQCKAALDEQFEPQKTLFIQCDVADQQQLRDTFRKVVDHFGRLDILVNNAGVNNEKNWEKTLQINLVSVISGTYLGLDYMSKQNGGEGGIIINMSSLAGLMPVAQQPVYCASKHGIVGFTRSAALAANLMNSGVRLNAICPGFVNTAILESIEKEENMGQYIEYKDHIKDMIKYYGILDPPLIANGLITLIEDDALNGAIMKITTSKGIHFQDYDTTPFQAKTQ
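NADH formation kinetics: reaction with 30 uM PGE2 and 1 mM NAD+ (final), 20 nM enzyme, Tris-HCl pH 8 with Tween 20, after 15 min compound preincubation at room temperature. Fluorescence change, last versus first of five reads.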
An asterisk follows results filed as active; u = inconclusive. % is scaled to controls: 0 for no effect and ±100 for the full control effect; potency is read from the fitted curve at half-maximal effect.

SMILES	HPGD inh
CCC1=C(OC(=O)N(CC)CC)N2C(=O)OC(=NCC3CC3)[C@]2(C)[C@H]2C1=CC[C@H]1C(=O)N(c3ccccc3)C(=O)[C@H]12	-15.9%
CCSC1=NC2(CCCCC2)Nc2sc3c(c21)CCCC3	4.47µM*
O=c1[nH]n(CC2COC3(CCCCC3)O2)c(=O)c2ccccc12 (stereo unspecified)	-17.8%
COc1ccc(C2C3=C(N=C4SCC(=O)N42)c2ccccc2CC3)cc1OC (stereo unspecified)	-12.9%
O=C(O)C1CCCN(S(=O)(=O)c2ccc(Cl)s2)C1 (stereo unspecified)	-3.0%
Cc1ccc(S(=O)(=O)NCCC(=O)Nc2ccc(C)c(Cl)c2)cc1C	-0.8%
COC(=O)CSc1nnc(-c2ccccc2OC)n1-c1ccc(C)cc1	1.8%
C1=CC2CCC1ON2c1ccccc1 (stereo unspecified)	-2.8%
CC(C)NC(=O)/C(=C/c1ccco1)c1ccccc1	-9.4%
CCn1c(C)nc2cc(C(=O)NNS(=O)(=O)c3ccc(C)c(C)c3)ccc21	-0.4%
Cc1ccc(S(=O)(=O)Nc2ccccc2C(=O)Nc2nc(-c3ccc(F)cc3)cs2)cc1	u
CS(=O)(=O)N(Cc1ccccc1)c1ccccc1C(=O)Nc1ccccc1C(=O)NCc1ccco1	-4.6%
CCOC(=O)C1C(=O)NCC2CCCC21 (stereo unspecified)	-1.8%
Oc1ccc2nc(Cc3ccccc3)[nH]c2c1	-3.6%
N=c1c2c(ncn1CCN1CCOCC1)Oc1ccc3ccccc3c1C2c1ccccc1 (stereo unspecified)	-5.2%
O=C(CN(c1ccccc1)S(=O)(=O)c1ccccc1)N1CCN(Cc2ccc3c(c2)OCO3)CC1	-1.9%
CC1(C)CC(=O)C(C(c2ccco2)C2C(=O)CC(C)(C)CC2=O)C(=O)C1	7.94µM*
CCn1c(SCc2cc(=O)[nH]c3ccccc23)nnc1C1CC1	-4.2%
COC(=O)c1ccc(NC(=O)CSc2nnc(CNc3ccc(OC)cc3)n2C)cc1	-6.0%
O=C(NCC1COc2ccccc2O1)C1CCCN(S(=O)(=O)c2cnc[nH]2)C1 (stereo unspecified)	-9.1%

Entries from the list above that contain a carbonyl joined to an NH by a bond outside any ring, in the order listed:
SMILES	HPGD inh
Cc1ccc(S(=O)(=O)NCCC(=O)Nc2ccc(C)c(Cl)c2)cc1C	-0.8%
CC(C)NC(=O)/C(=C/c1ccco1)c1ccccc1	-9.4%
CCn1c(C)nc2cc(C(=O)NNS(=O)(=O)c3ccc(C)c(C)c3)ccc21	-0.4%
Cc1ccc(S(=O)(=O)Nc2ccccc2C(=O)Nc2nc(-c3ccc(F)cc3)cs2)cc1	u
CS(=O)(=O)N(Cc1ccccc1)c1ccccc1C(=O)Nc1ccccc1C(=O)NCc1ccco1	-4.6%
COC(=O)c1ccc(NC(=O)CSc2nnc(CNc3ccc(OC)cc3)n2C)cc1	-6.0%
O=C(NCC1COc2ccccc2O1)C1CCCN(S(=O)(=O)c2cnc[nH]2)C1 (stereo unspecified)	-9.1%

Next part:
SMILES	HPGD inh
CCC1(CC)C(=O)N(C)C(=O)NC1=Nc1ccc(OC)cc1	-10.8%
CC(C)OCCCNC(=O)C1CCC(CNS(=O)(=O)c2ccccc2)CC1 (stereo unspecified)	u
Cc1ccc(/C=N/n2cnc3sc(-c4ccccc4)cc3c2=O)o1	u
CCOc1ccc(OCc2ccc(C(=O)Nc3ccc(Cl)cn3)o2)cc1	u
O=C(O)c1cccc(S(=O)(=O)NCc2cccs2)c1	-6.5%
Cc1ccccc1CSCC(=O)NC(=O)NC(C)(C)C	-10.4%
Cc1cc(NC(=O)CSc2nc3ccccc3[nH]2)no1	-15.6%
Cc1ccc(Cn2ccc(NC(=O)c3c(-c4ccccc4Cl)noc3C)n2)cc1	-2.0%
COC(=O)[C@@]1(C)C=C[C@@H](Cc2ccccc2)N1C(=O)c1ccccc1	1.3%
Cc1nc2nc(C)c(CCC(=O)N3CCN(c4ccccc4)CC3)c(C)n2n1	-11.7%
S=C(NCCCn1ccnc1)NC1CCCCC1	1.2%
CCc1nnc(NC(=O)CSc2nnc(COc3ccccc3)n2Cc2ccccc2)s1	-0.7%
O=C(OC(C(=O)Nc1ccc(Cl)cc1C(F)(F)F)c1ccccc1)C1=COCCO1 (stereo unspecified)	2.0%
CCCS(=O)(=O)NCc1cn2c(C)csc2n1	-9.4%
COC(=O)[C@@]1(Cc2ccccc2)[C@@H]2[C@@H](CC(=O)[C@H]2CC(=O)C(=O)N(C)C)CN1C(=O)c1ccccc1	-14.3%
O=[N+]([O-])c1ccc(O)c(-c2nn[nH]n2)c1	-27.5%
COc1ccc(C(=O)c2ccc(O)cc2)c(O)c1O	u
O=C(CSc1nc2c(c(=O)n1-c1ccc(Cl)cc1)SCC2)Nc1ccc2c(c1)OCCO2	-9.8%
COc1ccccc1Nc1nc(N)nc(CSC(=S)N2CC(C)CC(C)C2)n1 (stereo unspecified)	-27.3%
Cn1nnc(NC(=O)c2ccco2)n1	-3.8%
COc1ccccc1C(=O)O/N=C(\N)c1ccccc1Cl	28.2µM*
OCc1ccc(-c2ccc(-c3ccc(CO)s3)o2)s1	u
O=C1C2C3CCC(C3)C2C(=O)N1Cc1ccccc1 (stereo unspecified)	-11.7%
COc1cccc(N(CC(=O)N/N=C(\C)c2cccs2)S(C)(=O)=O)c1	-17.4%
Cc1cc(C)n(CC(O)CN(c2ccccc2)S(=O)(=O)c2ccc3ccccc3c2)n1 (stereo unspecified)	-6.5%
CCN1C(=S)SC(=O)C1=C1C=C(C)N(CCOC)C(C)=C1	-27.1%
Cc1cc(C(=O)NCc2ccccc2Br)no1	-10.9%
N#CC1=C(N)S[C@@H](C(=O)c2ccc(F)cc2)[C@@H]1c1cccs1	-20.9%
COc1ccccc1NC(=O)CSc1nnnn1Cc1ccccc1	-8.9%
O=C(c1ccccc1)N1CCN(CC(O)COCC2CC=CCC2)CC1 (stereo unspecified)	1.1%
O=S(=O)(c1ccc2ccccc2c1)N1CCN(C(=S)Nc2ccc(F)cc2)CC1	-21.6%
Cc1cc(C)n(C/C=C/Cn2nc(C)cc2C)n1	2.2%
O=C(NCCCc1ccccc1)c1ccc(Br)o1	25.1µM*
Cc1ccc(/C=N/NC(=O)c2nn(C)cc2Cl)cc1	-2.3%
CCCCCC(=O)Nc1ccc(C(=O)N/N=C/c2ccc([N+](=O)[O-])cc2)cc1	-10.6%
O=C(CSc1nnc(-c2ccco2)n1-c1ccccc1)N1CCOCC1	0.3%
O=C(O)Cn1nc(-c2ccccc2)c2ccccc2c1=O	-0.6%
O=C(NCc1ccc2c(c1)OCO2)c1ccc(=O)[nH]c1	-8.7%
CCOC(=O)N1CCN(CC(=O)Nc2cc3c(cc2C(C)=O)OCO3)CC1	u
Cc1ccc(-n2c3c(c(O)c(-c4ccccc4)c2=O)C(=O)CC(C)(C)C3)cc1	-3.4%
Cc1ccc(S(=O)(=O)N(C)CCCC(=O)Nc2ccc(C)cc2C)cc1	-1.5%
CCOC(=O)c1nc(N)c(C(=O)OCC)[nH]1	u
CC(=O)Oc1ccc2c(=O)c(Oc3ccccc3[N+](=O)[O-])coc2c1	-0.4%
CCOC(=O)c1c(NC(=S)Nc2ccccc2)sc2c1CC(C)(C)SC2	u
O=C(Nc1ccc2c(c1)CCC2)c1cnccn1	-5.7%
O=C(N1CCOCC1)N1CCC(NC(=O)C23CC4CC(CC(C4)C2)C3)CC1	-16.2%
COC(=O)Nc1ccc(OC)c(OC)c1	-14.9%
CCC(C)(C)n1nnnc1C(c1ccccc1F)N1CCC(C(N)=O)CC1 (stereo unspecified)	-11.5%
Cc1ccccc1-n1c(-c2ccncc2)n[nH]c1=S	u
COC(=O)c1cc(=O)n(Cc2ccco2)c(=Nc2ccc(F)c(Cl)c2)s1	-10.0%
The list continues.
SMILES	HPGD inh
COc1ccccc1Oc1c(C)oc2c(CN3CCN(CCO)CC3)c(O)ccc2c1=O	u
CC(=O)c1cc(-c2ccccc2)n(CCC(=O)NC2CCCCCC2)c1C	-4.2%
Cc1nc([N+](=O)[O-])nn1C12CC3CC(CC(Cl)(C3)C1)C2	0.7%
CC(C)CNC(=O)c1cccc(C(=O)NCC(C)C)c1	-17.5%
CC(C)NC(=O)c1ccccc1-c1ccccc1	-2.0%
Cc1n[nH]c(C)c1CCC(=O)N/N=C/C=C/c1ccccc1	-20.2%
CCC(C)NC(=O)COC(=O)c1cc([N+](=O)[O-])ccc1Sc1nc(C)cs1 (stereo unspecified)	-11.7%
Cc1ccc(-n2nnc3c(SCC(=O)N4CCN(c5ccccc5)CC4)ncnc32)cc1	-2.5%
Cc1cccc(/C(N)=N/OC(=O)c2ccco2)c1	u
S=C(NCc1ccccn1)Nc1ccc(Cl)cc1	-10.6%
O=C(c1cccc(F)c1)N1CCC2(CC1)CCN(c1ncccn1)CC2	-11.9%
Nc1cc(=O)[nH]c(SCC(=O)NCC2CCCO2)n1 (stereo unspecified)	-5.1%
C=CCn1c(SCCC#N)nnc1-c1ccncc1	-7.4%
Cc1ccc2[nH]c(-c3ccccc3)c(CN3CCN(C)CC3)c(=O)c2c1	-16.4%
COc1ccc(C2SCC(=O)N2c2c(C)n(C)n(-c3ccccc3)c2=O)c(OC)c1 (stereo unspecified)	-8.0%
N#CCCN(C(=O)COC(=O)c1ccc2c(c1)NC(=O)CS2)c1ccc2c(c1)OCCO2	-1.0%
Cn1ncc(Br)c1C(=O)NC1C2CC3CC(C2)CC1C3 (stereo unspecified)	-4.7%
Cc1ccc(S(=O)(=O)N(CC(=O)O)c2cccc(Cl)c2)cc1	-9.5%
CCCCNC(=O)CS(=O)Cc1nc(-c2cccc(C)c2)oc1C (stereo unspecified)	-6.5%
O=C(NC1CC1)c1ccc2c3c(cccc13)CC2	u
O=C(CSc1ncnc2nc[nH]c12)c1ccc2ccccc2c1	u
CCC1Oc2ccccc2N(CC(=O)Nc2ccc(OC)cc2OC)C1=O (stereo unspecified)	2.1%
CCn1nc(C(=O)OCC(=O)Nc2nc(-c3ccc(OC)cc3)cs2)c2ccccc2c1=O	-8.2%
CS(=O)(=O)N(Cc1ccc(Cl)cc1)c1ccc(C(=O)Nc2cccnc2)cc1	-9.6%
O=C(CSc1ncn[nH]1)c1cccc([N+](=O)[O-])c1	u
COc1ccc(Cl)cc1C(=O)NCC(C)C	-18.9%
C#CCSc1nnc(CSc2nc3ccccc3s2)n1-c1ccccc1	u
COc1cc2nc3occc3c(OC)c2cc1OC	-11.3%
Cc1ccc(Nc2nnc(SCC(=O)NCCN3C(=O)CSC3=O)s2)cc1	-10.6%
CCCc1nc(SCC(N)=O)[nH]c(=O)c1CC	-4.8%
COc1ccc(NC(=O)CN(c2ccc([N+](=O)[O-])cc2)S(=O)(=O)c2ccccc2)c(OC)c1	-10.6%
Cc1cc(C(=O)c2ccc(Cl)cc2)c(NC(=O)CCl)s1	-8.2%
C=CCN=c1scc(-c2ccc(F)cc2)n1/N=C/c1ccccn1	-3.0%
COc1ccc(OC)c(NC(=O)CSc2nnc(N)s2)c1	-4.2%
Cc1cccc(CSC2=NN3CCCC(=O)N=C3S2)c1	-13.6%
COc1ccccc1NC(=O)[C@H](COCc1ccccc1)NC(=O)OC(C)(C)C	0.4%
O=C(NC(Cc1ccccc1)C(=O)O)c1ccc(S(=O)(=O)N2CCOCC2)cc1 (stereo unspecified)	-6.2%
COc1ccc(N2CCN(C(=O)c3ccc(Oc4ccc(C(F)(F)F)cn4)cc3)CC2)cc1	-17.3%
COc1cc(C(=O)NNC(=O)c2ccc(S(=O)(=O)N3CCCCC3)cc2)cc(OC)c1OC	5.4%
Cc1nc(NC(=O)c2ccc(Br)s2)sc1C(=O)N(C)C	-18.7%
COCCCNC(=O)Cn1nnc(-c2ccc(NC(=O)c3ccc(F)cc3)cc2)n1	u
CCc1nc(N[C@H](C(=O)O)C(C)CC)c2oc3ccccc3c2n1 (stereo partly specified)	-6.5%
Cc1nc2cc(S(=O)(=O)C(F)(F)F)ccc2s1	-14.4%
COC(=O)c1ccccc1OCCOCCOc1cccc2cccnc12	-13.4%
CCC(C)(C)NC(=O)c1cc([N+](=O)[O-])ccc1N1CCOCC1	-10.2%
Cc1ccccc1NC(=O)Nc1cc(S(N)(=O)=O)ccc1C	-6.2%
O=C(CCc1ccc(O)cc1)c1c(O)cc(O)cc1O[C@H]1OC(CO)C(O)C(O)C1O (stereo partly specified)	25.1µM*
CCCCNc1c2c(nc3c(-c4ccccc4)c(C)nn13)CCC2	u
O=C(NCc1cccnc1)c1noc2c1CCCC2	-10.8%
Nc1c(C(=O)NCc2ccc(F)cc2)c2nc3ccccc3nc2n1CCCN1CCOCC1	u
Additional results follow.
SMILES	HPGD inh
O=C(/C=C/c1ccccc1)N1CCN(c2ccccn2)CC1	-3.2%
OCC(CO)(CO)NCc1ccc(-c2ccccc2)cc1	-14.8%
C/C(=N\NC(=O)C1CCCN(S(=O)(=O)c2ccccc2)C1)c1ccccn1 (stereo unspecified)	-10.4%
COc1ccc2c(c1)c(CCN1C(=O)c3ccccc3C1=O)cn2C(=O)c1ccco1	u
CC1=C(C(=O)Nc2ccccc2)C(c2ccc(C)o2)N2C(=O)CSC2=N1 (stereo unspecified)	-8.1%
Cc1ccc(S(=O)(=O)N(C)Cc2ccc(C(=O)N/N=C3\CCCC(=O)C3)cc2)cc1	-17.5%
Cc1cnc(NC(=O)CN2C(=O)C3CC=CCC3C2=O)s1 (stereo unspecified)	-3.9%
COC(=O)CNc1nc(OC)nc(N(C)C)n1	-4.8%
Cc1nn(C)cc1CNC(=O)c1cc2n(n1)C(C(F)(F)F)CC(c1cccs1)N2 (stereo unspecified)	-18.0%
COc1ccc2c(c1)C(=O)[C@@H](OC(=O)NC1CCCC1)[C@H](c1ccc(OC)c(Br)c1)O2	-6.4%
COc1ccc2c(c1)OCC(Cc1ccc(OC)c(O)c1)C2=O (stereo unspecified)	u
CCC(=O)Nc1ccc(NC(=O)c2ccc3c(c2)OCO3)cc1	-10.3%

Molecules from the list above with a tert-butyl group:
SMILES	HPGD inh
Cc1ccccc1CSCC(=O)NC(=O)NC(C)(C)C	-10.4%
COc1ccccc1NC(=O)[C@H](COCc1ccccc1)NC(=O)OC(C)(C)C	0.4%

Compound activity as filed in PubChem.

An excerpt; the hit share may differ from the screen's.
